Assay outcomes from PubChem.
VDR inh: vitamin D3 receptor (human) inhibition; P11473; VDR-SRC2-3 peptide fluorescence polarization, 2 h; Potency, µM, without a hit: max response, negative = inhibition, actives largely listed as inhibitors; hit rate 0.93% among 400,000; AID 504847; active means well fitted inhibition curve with a large enough effect; inconclusive means small, poorly fitted or top-dose-only effect, or another doubt; inactive means no such curve, though single readings can be large or run the other way; further: series mostly up to about 120 µM
Target sequence (P11473 whole entry, looked up): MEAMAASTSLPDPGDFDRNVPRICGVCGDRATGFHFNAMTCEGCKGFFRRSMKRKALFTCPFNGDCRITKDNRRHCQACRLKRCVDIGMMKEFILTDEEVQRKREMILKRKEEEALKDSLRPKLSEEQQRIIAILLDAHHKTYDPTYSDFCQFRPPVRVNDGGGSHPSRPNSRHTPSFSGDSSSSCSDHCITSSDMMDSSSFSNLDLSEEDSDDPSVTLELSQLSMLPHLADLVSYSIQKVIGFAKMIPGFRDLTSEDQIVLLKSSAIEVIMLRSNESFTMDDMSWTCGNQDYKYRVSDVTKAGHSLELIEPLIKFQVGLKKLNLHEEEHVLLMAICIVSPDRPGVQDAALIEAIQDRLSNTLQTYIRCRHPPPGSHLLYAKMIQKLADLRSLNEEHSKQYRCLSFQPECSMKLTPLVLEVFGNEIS
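FP read-out; VDR + SRC2-3 coactivator peptide; 23 nl compound by pintool; 2 h RT incubation; reagents held at 4 deg C, protected from light.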
Active calls of the source: *; ? = inconclusive. On the % scale 0 is the no-effect control and ±100 the full control effect; potency means the concentration at half of the fitted maximal effect.

| smiles | VDR inh |
| --- | --- |
| CCc1cc(=O)[nH]c(SCC(=O)N2CCC(Cc3ccccc3)CC2)n1 | 5% |
| Cc1ccc(NS(=O)(=O)c2ccc(-c3cc(C)no3)cc2)c(Br)c1 | 2% |
| O/C(=C\c1ccc2ccccc2n1)c1ccncc1 | 1% |
| CCc1nnc(NC(=O)CSc2nc3ccccc3c(=O)n2CCCOC)s1 | ? |
| COc1nc(Oc2ccc(C(=O)OCC(N)=O)cc2)nc(N(C)C)n1 | 4% |
| CCN(CC)C(=O)NCc1c(C)cc(C)cc1C | -5% |
| COC(=O)C1=C(C)N(CCc2cc(OC)c(OC)c(OC)c2)C(=O)N[C@H]1c1ccccc1 | -3% |
| Cc1ccc(-c2csc(NC3OC(=O)c4ccccc43)n2)cc1 (configuration not stated) | 5% |
| O=C(NC1CC1)C1=C[C@@H](c2c[nH]c3ccccc23)C[C@@H](OCCCCO)O1 | -5% |
| Cc1cccc2cc3c(NC(=O)c4ccccn4)nn(C)c3nc12 | 7% |
| C/C(=N/NC(=S)Nc1ccccc1)c1ccc2c(c1)OCO2 | -16% |
| C/C(=N\NC(=O)c1ccc(CN(C)S(=O)(=O)c2ccc(C)cc2)cc1)c1ccc(OC(F)F)cc1 | 5% |
| COC(=O)c1sc(NC(=S)NC(=O)c2ccccc2C)nc1C | -11% |
| CN(C)S(=O)(=O)c1cccc(NC(=O)c2n[nH]c(=O)c3ccccc23)c1 | 13% |
| CCOc1ccc(-c2c(C)nn3c(C)c(C(=O)NCCc4ccc(Cl)cc4)cnc23)cc1OCC | 8% |
| O=C(CN1CCN(C(=O)CNC(=O)c2ccc3c(c2)OCO3)CC1)Nc1ccccc1Cl | -13% |
| CC(C)NC(=O)N1CC[C@@]2(CCCN(C(=O)c3ccco3)C2)C1 | -7% |
| Cn1c(SCC(=O)NNC(=S)Nc2ccccc2)nnc1-c1ccccc1 | 4% |
| CCOC(=O)c1oc2c(c1C)-c1nn(Cc3cccc(Cl)c3)cc1CC2 | -3% |
| Clc1ccc(-n2c(SCc3nc4ccccc4[nH]3)nnc2-c2ccncc2)cc1 | -5% |

The list continues:
| smiles | VDR inh |
| --- | --- |
| Cc1ccc(S(=O)(=O)/N=C(\N)c2ccc(Cl)cc2)cc1 | 7% |
| COC(=O)c1sccc1NC(=S)N1CCN(c2ccccc2F)CC1 | 2% |
| COC(=O)c1cc(-c2cccc(OC)c2)n[nH]1 | -3% |
| NS(=O)(=O)c1ccc(NC(=S)NCc2ccccc2Cl)cc1 | -19% |
| O=C(NC(CC(=O)N1CCN(c2ccccc2)CC1)c1ccccc1)c1ccccc1Cl (configuration not stated) | -12% |
| CCOC(=O)CNS(=O)(=O)c1ccc(C)cc1 | -1% |
| O=C(c1ccco1)N1CCN=C1SCc1cccc(F)c1 | -3% |
| Cn1c(=O)c(=O)n(C)c2cc(S(=O)(=O)N3CCCC3C(=O)NCc3cccnc3)ccc21 (configuration not stated) | 4% |
| O=C(COC(=O)COc1ccc(Cl)cc1Cl)NC1CC1 | -10% |
| N#Cc1ccc(C23CC4(C2)[C@H](CN(Cc2ccc(-c5ccccc5)cc2)[C@@H]4c2ccccc2)C3c2ccc(C(F)(F)F)cc2)cc1 (some centres not stated) | 6% |
| C=C(C)c1cccc(C(C)(C)NC(=O)Nc2ccc(OC)nc2)c1 | 14% |
| O=C(c1ccncc1)N1CCC2(CC1)CCN(c1ccncc1)CC2 | -1% |
| COC(=O)C1C2CCC(C2)C1C(=O)OCC(=O)c1ccc(C)cc1 (configuration not stated) | 6% |
| CCOC(=O)Cn1c(=O)n(CC2CCCO2)c2nc(-c3ccc(C(C)C)cc3)nc(C(N)=O)c21 (configuration not stated) | -6% |
| CCCC[n+]1ccn(-c2nc3ccccc3nc2[N-]S(=O)(=O)c2cccs2)c1 | 5% |
| CCOC(=O)c1[nH]c2ccccc2c1NC(=O)c1ccccc1OCC | -9% |
| Nc1ccc(C(=O)OCC(=O)Nc2ccc3c(c2)OCO3)cc1[N+](=O)[O-] | -2% |
| O=Cc1ccc(-c2ccc(C(=O)O)cc2)o1 | -11% |
| Cc1ncc(CO)c2c1Oc1nc(-c3ccccc3)nc(SCC(=O)Nc3cccc(C(F)(F)F)c3)c1C2 | 12% |
| CCOC(=O)c1[nH]c(C)c(CCC(=O)Nc2ccccc2OCC)c1C | -2% |

Further compounds.
| smiles | VDR inh |
| --- | --- |
| Cc1cccc(CSc2nc3cc(C(=O)NC4CCCC4)ccc3c(=O)n2Cc2ccccc2)c1 | 14% |
| COc1cccc(CN(C)C(=O)c2ccccc2Sc2ccccc2C#N)c1OC | ? |
| O=C(O)Cn1c(-c2ccccc2)nc2ccccc21 | -6% |
| CCC(C)(C)NC(=O)CN(C(=O)CCC(=O)Nc1ccccn1)c1ccc(F)c(Cl)c1 | -7% |
| O=C(Nc1ccc(Br)c(Cl)c1)c1ccc(C(=O)Nc2ccc(Br)c(Cl)c2)cc1 | -15% |
| Cc1ccc(-n2nc(-c3ccccc3)c3cnc4cc5c(cc4c32)OCO5)cc1C | -4% |
| COc1ccc(CC(=S)NCCc2ccccc2)cc1 | ? |
| CCN1C(=O)c2cccc3c(NC(=O)C4CCCCC4)ccc1c23 | -8% |
| CS(=O)(=O)N1CCC(C(=O)N2CCN(c3ccc(F)cc3)CC2)CC1 | -19% |
| CCCCOc1ccc(NC(=O)c2cnc(C)cn2)cc1 | -3% |
| O=C(NCCCCc1ccccc1)C1CC(c2cccc(F)c2)=NO1 (configuration not stated) | 2% |
| CC1CN(S(=O)(=O)c2cccc3nsnc23)CC(C)O1 (configuration not stated) | 18% |
| COC1(OC)N=C(N)C2(C#N)C(c3ccc4c(c3)OCO4)C12C#N (configuration not stated) | -3% |
| Cc1ccc2nc(SCc3nnc(-c4cccs4)o3)[nH]c2c1 | 1% |
| CCN1CCN(CCCN(Cc2cccs2)C(=S)Nc2ccccc2C)CC1 | 0% |
| CN1CCN(C(=O)/C(=C/c2ccccc2Cl)NC(=O)c2ccccc2)CC1 | -21% |
| Nc1sc2c(c1C(=O)NC1CC1)CCCC2 | 79µM* |
| O=C(Nc1ccc(Oc2ccc3ccccc3c2)cc1)c1ccco1 | -4% |
| Cc1nn(Cc2ccc(C(=O)N3CCCC3)o2)c(C)c1[N+](=O)[O-] | 3% |
| O=C1C(=O)N(Cc2cccnc2)C(c2ccc(Br)cc2)/C1=C(\O)c1ccc2c(c1)OCCO2 (configuration not stated) | 11% |

(listing goes on)
| smiles | VDR inh |
| --- | --- |
| Cc1cc(C)cc(NC(=O)CSc2nc(=O)n(CCCN3CCOCC3)c3c2CCCC3)c1 | -14% |
| CCCn1c(=O)c2ccccc2n2c(SCC(=O)Nc3cc(C)on3)nnc12 | -1% |
| COc1cc(NC(=S)N2CCc3ccccc3C2)cc(OC)c1 | 4% |
| Cc1ccc(NC(=O)c2cc3ccccc3o2)cc1 | -9% |
| CSc1ccccc1NC(=O)COc1ccccc1Cl | -6% |
| Cc1ccc(C(=O)N2CCN(c3cccc(C)c3C)CC2)o1 | -6% |
| O=C(NCc1ccccc1F)c1cc(=O)[nH]c2ccccc12 | -2% |
| CN(C(=O)c1cccn(Cc2ccccc2)c1=O)c1ccccc1 | 8% |
| Cn1c(N)c(C(=O)COC(=O)COc2cc(Cl)c(Cl)cc2Cl)c(=O)n(C)c1=O | -1% |
| O=C(CSc1c2c(nc3cc(Cl)ccc13)CCCC2)NCc1ccccc1Cl | -27% |
| O=C(CSC1=NNC(c2ccccn2)S1)Nc1cccc(Cl)c1 (configuration not stated) | ? |
| c1ccc(C2=Nc3c(ccc4ccccc34)C(c3ccncc3)=NN2)cc1 | -11% |
| CCCn1c(NCc2ccccc2F)nc2ccccc21 | 16% |
| Cc1[nH]n(-c2ccccc2)c(=O)c1C=Nc1ccc(S(=O)(=O)N(C)C)cc1 | -8% |
| CN(Cc1ccccc1)C(=O)CSc1nc2ccccc2n1Cc1ccccc1F | 1% |
| CN(C)S(=O)(=O)c1ccccc1C#N | -2% |
| COc1ccc(-c2cc(C3CCN(CC(O)C(F)(F)F)CC3)[nH]n2)cc1 (configuration not stated) | -19% |
| COc1ccc(NC(=O)CCNS(=O)(=O)c2cccc(C(C)=O)c2)cc1S(N)(=O)=O | -12% |
| Fc1cccc(Oc2nc3ccccc3n3cccc23)c1 | 17% |
| Cc1c(Cl)cccc1NC(=S)N1CCN(c2ncccn2)CC1 | 4% |

Additional compounds.
| smiles | VDR inh |
| --- | --- |
| O=C(CCc1ccccc1)Nc1ncc2c(n1)CCCC2=O | 6% |
| Clc1ccc(N2CCCCCC2)nn1 | 11% |
| O=C(Nc1ccc(N2CCN(C(=O)c3cccs3)CC2)cc1)c1ccccc1F | 9% |
| CCO/C=C1\C(=O)N(c2ccc(OCC)cc2)C(=O)c2ccccc21 | -10% |
| CC(C)CNC(=O)c1c2c(nc3ccccc13)-c1ccccc1CC2 | 14% |
| Cc1cc(C)cc(NC(=O)c2ccc(S(=O)(=O)N(C)CC3CCCO3)cc2)c1 (configuration not stated) | -6% |
| O=C(Nc1ccc(N2CCOCC2)cc1)c1ccc([N+](=O)[O-])o1 | 3% |
| CCCC(=O)Nc1nnc(-c2cccc(OCC)c2)s1 | -9% |
| O=C(Nc1cc(C(F)(F)F)ccc1Cl)c1cc(C2CC2)on1 | -5% |
| COc1ccc(C(=O)COC(=O)c2sc(C)nc2C)cc1Cl | -27% |
| COC(=O)c1ccccc1C(=O)N1CCCC(C(=O)c2cc(F)ccc2F)C1 (configuration not stated) | -9% |
| Cc1cc(=O)oc2cc(NC(=O)c3ccnn3C)ccc12 | 3% |
| Cc1ccc(-n2cc[nH]c2=S)c(C)c1 | 12% |
| CCOc1ccc(C(=O)CN2CCN(S(=O)(=O)c3ccc(OC)cc3)CC2)cc1 | 1% |
| NC(=O)NCc1cccs1 | 2% |
| O=S(=O)(NCC1CCCO1)c1ccc(Br)s1 (configuration not stated) | 21% |
| COc1ccccc1NC(=O)CN(Cc1ccco1)C(=O)c1ccc(=O)[nH]c1 | 1% |
| CCOCCc1nnc(NC(=O)CN2C(=O)c3ccccc3C2=O)s1 | -16% |
| CCN(C[C@H]1N[C@@](Cc2ccccc2)(C(=O)OC)[C@H]2C(=O)N(Cc3ccccc3)C(=O)[C@@H]12)C(=O)NC(C)C | 1% |
| CCC(C)Sc1oc(-c2ccco2)nc1S(=O)(=O)c1ccc(Cl)cc1 (configuration not stated) | -6% |

Molecules from the list above with a CF3 group, in the order listed:
| smiles | VDR inh |
| --- | --- |
| N#Cc1ccc(C23CC4(C2)[C@H](CN(Cc2ccc(-c5ccccc5)cc2)[C@@H]4c2ccccc2)C3c2ccc(C(F)(F)F)cc2)cc1 (some centres not stated) | 6% |
| Cc1ncc(CO)c2c1Oc1nc(-c3ccccc3)nc(SCC(=O)Nc3cccc(C(F)(F)F)c3)c1C2 | 12% |
| COc1ccc(-c2cc(C3CCN(CC(O)C(F)(F)F)CC3)[nH]n2)cc1 (configuration not stated) | -19% |
| O=C(Nc1cc(C(F)(F)F)ccc1Cl)c1cc(C2CC2)on1 | -5% |

Other records follow.
| smiles | VDR inh |
| --- | --- |
| CCc1cccc(NS(=O)(=O)c2ccc3c(c2)oc(=O)n3C)c1 | -8% |
| O=C(O)COc1ccccc1/C=C1\SC(=S)N(NC(=O)c2ccccc2O)C1=O | -23% |
| CCC(=O)c1ccc(OCC(=O)O)cc1 | 4% |
| CC1CCN(C(=O)c2[nH]cnc2C(=O)NCC(=O)OCc2ccccc2)CC1 | 7% |
| CNc1nc(NCc2ccccc2)nc(N)c1[N+](=O)[O-] | -12% |
| CC(=O)c1cccc(NC(=O)c2c(C)nn(-c3ccc(F)cc3)c2-n2cccc2)c1 | 4% |
| CCOC(=O)c1cc2c(=O)n3cccc(C)c3nc2n(Cc2ccco2)c1=NC(=O)c1cccnc1 | -17% |
| COC(=O)c1ccc(CSc2nnc(Nc3cccc(OC)c3)s2)o1 | 4% |
| COc1cc(NC(=O)C2CCCO2)c(OC)cc1NC(=O)c1ccccc1 (configuration not stated) | 6% |
| COc1ccc(-c2nnc(SCC(=O)Nc3ccc(C)c(C)c3)s2)cc1 | 13% |
| COc1ccc(C(=O)OCc2cc(=O)n3ccsc3n2)cc1F | -17% |
| CCCCn1c(SCC(=O)c2c(N)n(C3CC3)c(=O)[nH]c2=O)nc2cc(S(N)(=O)=O)ccc21 | -17% |
| COc1ccnc(Oc2ccc(F)cc2)c1C#N | -8% |
| COc1ccccc1Nc1cc(C(=O)NCCCN(C)c2ccccc2)c2ccccc2n1 | -2% |
| O=C(c1cccc(F)c1)N1CCC(O)(c2cccnc2)CC1 | 1% |
| Cc1cc(C)c2c(N)c(C(=O)c3ccc(Cl)cc3)sc2n1 | -2% |
| CCn1c(SCc2ccc(F)cc2)nc2ccccc2c1=O | -5% |
| CCc1nc2ccccc2c(C(=O)OCc2nc3ccccc3c(=O)[nH]2)c1C | 16% |
| CCCc1cc(C(=O)Nc2cnn(Cc3ccc(F)cc3)c2)no1 | -1% |
| Cc1ccc(S(=O)(=O)N(CC(=O)NCCSc2ccc(Cl)cc2)c2cccc(Cl)c2)cc1 | -8% |

Other results.
| smiles | VDR inh |
| --- | --- |
| O=C(NN=C1C2CC3CC(C2)CC1C3)c1cc(Cl)ccc1O | 23% |
| O=C(CNC(=O)c1cccc(Cl)c1)NCCCSc1ccccc1 | -4% |
| CCc1ccc(NC(=O)c2nc3nc(C)cc(C(F)F)n3n2)cc1 | 9% |
| O=C(NC1CCCC1)O[C@@H]1C(=O)c2cc(Br)ccc2O[C@H]1c1ccc2c(c1)OCO2 | -3% |
| CCn1c(CCCNC(=O)c2ccc(F)cc2)nc2ccccc21 | -4% |
| Cc1ccc(C(=O)OCC(=O)NCc2ccco2)cc1C | -25% |
| C/C(=N/NC(=O)C1CCN(S(=O)(=O)c2ccc(C)cc2)CC1)c1cccc([N+](=O)[O-])c1 | -8% |
| COc1ccccc1C(=O)NCCn1cc(SCc2ccc(C)cc2)c2ccccc21 | -18% |
| CCCCC(CC)CNC(=O)Cn1c(=O)[nH]c2ccsc2c1=O (configuration not stated) | -12% |
| CN(C)S(=O)(=O)N1CCN(c2ccc([N+](=O)[O-])c(N3CCOCC3)c2)CC1 | -5% |
| O=C(NCCN1CCOCC1)c1ccccc1Oc1ccccc1 | -5% |
| CC1=CSC2=NC(=O)/C(=C/c3cccc(OC(=O)c4ccco4)c3)C(=N)N12 | -14% |

Only part of the results is shown (hit frequency here may not be typical).
